E coli growth – inhibitors of Escherichia coli growth; AID 1053175; OD600, 23 h; stronger effect = lower value; 330,000 compounds, 0.21% hits; OD600 absorbance (test concentration not listed);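 active means OD600 absorbance below the run mean of sample wells minus 3.6 SD, in any replicate, cut at about 0.56 in these data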;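 further: stock transfer was 300 nL into about 60 µL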
* = called active by the depositor; & = joins results of further samples. Not all compounds are listed; rates above refer to the full screens.

cpd	E coli growth	SMILES
1	0.75	CON=C(c1nonc1N)N1CCN(c2ccc([N+](=O)[O-])cc2Cl)CC1
2	0.72	O=C(O)c1cccc(-c2ccc(C=NNC(=O)C3COc4ccccc4O3)o2)c1 (stereo unspecified)
3	0.59	C(=NNc1nc2ccccc2[nH]1)c1ccc2ncccc2c1
4	0.71	COc1cc(C=NN=Cc2c[nH]c(=O)c(C#N)c2Nc2ccccc2)ccc1O
5	0.7	O=C(NN=Cc1ccsc1)C1CC1
6	0.71	O=C(O)C1(O)CC(O)C(O)C(O)C1 (stereo unspecified)
7	0.62	COc1ccc(CC(=O)NN=Cc2cc([N+](=O)[O-])cc(Br)c2O)cc1
8	0.7	CC(/C=C/c1ccco1)=NNC(=O)Cc1cccs1
9	0.57	NC(N)=NN=Cc1ccc2cccc(OCc3ccccc3)c2n1
10	0.7	CC1CN(C(C)CO)C(=O)c2cccc(NS(C)(=O)=O)c2OC1CN(C)CC1CCCCC1 (stereo unspecified)
11	0.65	S=c1[nH]ncn1N=Cc1ccccn1
12	0.68	COc1cc(C=Nn2nnnc2N)cc(Cl)c1OC
13	0.67	O=C(CSc1nc2sc3c(c2c(=O)n1-c1ccccc1)CCCC3)NN=Cc1ccccc1C(=O)O
14	0.75	O=C(NN=Cc1ccc(OC(=O)c2cccs2)cc1)c1ccc(F)cc1
15	0.63	CC(=NNC(=O)c1ccc(Cl)cc1)c1ccc2[nH]ccc2c1
16	0.79	O=C(CC=NOCc1ccc(Cl)cc1)c1cnc(-c2ccccc2)s1
17	0.71	CN(N=Cc1cc(Cl)ccc1O)C1=NS(=O)(=O)c2ccccc21
18	0.74	CC#CCN1c2ccccc2[C@]23CC(C(=O)OC)N(C(=O)NC(C)(C)C)C2=NC(C(=O)OC)=C(C(=O)OC)C13 (stereo partly specified)
19	0.71	COC(=O)C1=C(C)N(c2ccc(Cl)cc2)C(=Cc2cccs2)C1=O
20	0.71	CNC(=O)C(C#N)=c1sc(=CC(=O)OC)c(=O)n1-c1ccccc1
21	0.69	CC(C(O)c1ccccc1)N(C)C(=O)C(N)Cc1ccccc1 (stereo unspecified)
22	0.71	CC1CN(C(C)CO)C(=O)c2cc(NS(=O)(=O)c3ccccc3)ccc2OC1CN(C)C(=O)Nc1ccc2c(c1)OCO2 (stereo unspecified)
23	0.64	O=C(NN=Cc1ccccn1)C(=O)N1CCCCCC1
24	0.59	O=C(NN=Cc1ccco1)c1cc(-c2ccc3ccccc3c2)n[nH]1
25	0.78	COc1cc(C=Nn2cnnc2)ccc1OCCOc1ccccc1
26	0.68	NC(=Nc1nc2ccccc2o1)NC(=O)c1ccc([N+](=O)[O-])cc1
27	0.7	CCCCCNC(=O)CSC1=NC(=Cc2ccc(Cl)c(Cl)c2)C(=O)N1CC
28	0.7	CC(C)(C)NC(=O)C(=O)NN=Cc1ccc(F)cc1
29	0.68	CCC(=NNC(=O)OC)c1ccc(OC(F)F)cc1
30	0.66	CN(N=Cc1ccc(Cl)cc1)c1ncc(Cl)cc1C(F)(F)F
31	0.68	CC(=O)C(C(=N)N1CCN(C(c2ccccc2)c2ccccc2)CC1)=C(C)O
32	0.65	COc1cccc(C=Nn2nnnc2N)c1O
33	0.72	CCOc1cc(C=NN=C(N)c2nonc2N)cc(Br)c1OCc1ccc(Cl)cc1
34	0.74	Cc1ccc(-c2csc(NN=Cc3ccco3)n2)c(C)c1
35	0.71	CC1CN(C(C)CO)C(=O)c2cccc(NC(=O)c3ccc(-c4nccs4)cc3)c2OC1CN(C)C(=O)NC1CCCCC1 (stereo unspecified)
36	0.69	CC=C(C)C(=O)Nc1cccc(C2=NOC3(C2)CC(C(N)=O)N(C(=O)c2ccc(OC)cc2)C3)c1 (stereo unspecified)
37	0.69	NCCCCC(C(=O)NCCCCCCCCCCC(=O)N1CCNCC1)n1cc(CCCC(=O)O)nn1 (stereo unspecified)
38	0.68	COc1ccccc1C=NNC(=O)CC(=O)NC1CCCCC1
39	0.65	ON=C(c1ccc(Cl)cc1)c1ncc(C(F)(F)F)cc1Cl
40	0.69	COc1ccc(C=NNC(=O)c2ccn[nH]2)cc1COc1ccc(Cl)cc1Cl
41	0.66&0.68	CC(C)(C)C1C=C(C(=O)N2CCN(Cc3ccccc3)CC2)OC(OCc2ccc(CO)cc2)C1 (stereo unspecified)
42	0.7	O=C(NN=Cc1ccoc1)c1ccccc1O
43	0.67	N#CCC(Cc1ccccc1)N1CCN(CCc2ccccc2)CCC1=O (stereo unspecified)
44	0.67	Cc1c(C(=O)O)cccc1-n1c(C)cc(C=NNC(=O)c2cc3ccccc3o2)c1C
45	0.71	Cc1ccc(C=Nn2c(-c3ccc(Cl)cc3)n[nH]c2=S)o1
46	0.66	O=c1c2ccccc2ncn1N=Cc1ccccc1
47	0.73	CC=C(C)C(=O)Nc1cccc(C2=NOC3(C2)CC(C(N)=O)N(C(=O)CCCCC)C3)c1 (stereo unspecified)
48	0.66	O=C(Cc1cccc2ccccc12)NN=Cc1ccc2cccc(O)c2n1
49	0.73	CC(=NNC(=O)c1cccc(F)c1)c1cccc(NC(=O)c2ccc(F)cc2)c1
50	0.69	CC(C)(C)N=C1SCC(C)(C=NO)S1 (stereo unspecified)
51	0.71	CC(C)NC(=O)COc1ccc(C=NNS(=O)(=O)c2ccccc2)cc1
52	0.71	Cc1cc(-c2n[nH]c(=S)n2N=Cc2ccc(Cl)c([N+](=O)[O-])c2)n[nH]1
53	0.61	COc1cccc(C=NNC(=O)CNC(=O)C2COc3ccccc3O2)c1O (stereo unspecified)
54	0.73	CC(C=Cc1ccccc1)=NNc1ccccc1[N+](=O)[O-]
55	0.67	Cc1nn(-c2ccccc2)c(C)c1C=NNC(=O)c1cccs1
56	0.7	CCOC(=O)C(C#N)=CNc1ccccc1NS(=O)(=O)c1cccc(C(C)=O)c1
57	0.67	CC1CN(C(C)CO)C(=O)c2cccc(NC(=O)CCC(F)(F)F)c2OC1CN(C)S(=O)(=O)c1cccs1 (stereo unspecified)
58	0.69	Cc1cc(C(=O)NN=Cc2cccc([N+](=O)[O-])c2)c(C)n1-c1ccccc1
59	0.63	COc1ccc(S(=O)(=O)Nc2ccc3c(c2)C(=O)N(C(C)CO)CC(C)C(CN(C)S(=O)(=O)c2ccccc2)O3)cc1 (stereo unspecified)
60	0.68	CCOC(=O)C(C(C)=NNC(=O)c1ccccc1[N+](=O)[O-])C(C)C (stereo unspecified)

Next section
cpd	E coli growth	SMILES
61	0.72	CCCCn1nc(C(=O)NC(CCSC)c2nc3ccccc3[nH]2)c2ccccc2c1=O (stereo unspecified)
62	0.69	CCOc1cc(C=NNc2ncc(F)c(N3CCOCC3)n2)ccc1Oc1nc(Cl)ncc1F
63	0.68	COc1cccc(C=Nn2c(-c3cc(C)[nH]n3)n[nH]c2=S)c1OC
64	0.65	CC(C)NC(=O)N(C)CC1Oc2ccc(NC(=O)C3CC3)cc2C(=O)N(C(C)CO)CC1C (stereo unspecified)
65	0.71	CCN1C(=O)C2C(c3ccc(-c4ccc5c(c4)OCO5)cc3)N3CCCC[C@@]3(C(=O)OC)C2C1=O (stereo partly specified)
66	0.74	CCN(CC)C(=O)C1CCCN(c2ccc([N+](=O)[O-])cc2C=NNC(=O)c2cccc(O)c2)C1 (stereo unspecified)
67	0.67	CC(C)Oc1ccc(Br)cc1C(=O)NN=Cc1c[nH]c2ccccc12
68	0.73	CN(CC(c1ccccc1)N(CC(Cc1ccccc1)N(CCc1ccccc1)N=O)N=O)N=O (stereo unspecified)
69	0.69	COc1ccc(C2CC(=O)C=C(c3ccc(C)c(F)c3)C2)cc1 (stereo unspecified)
70	0.68&0.69	C#Cc1ccc(C2C=C(C(=O)NCc3nc4ccccc4[nH]3)OC(OCC)C2CCCO)cc1 (stereo unspecified)
71	0.71	O=C(CNC(=O)C(c1ccccc1)c1ccccc1)NN=Cc1ccc(C(=O)O)cc1
72	0.7&0.63	CC1OC1P(=O)(O)O (stereo unspecified)
73	0.63	COc1cc(CCCNC(CN)Cc2ccccc2)cc(OC)c1OC (stereo unspecified)
74	0.69	COc1ccc(C(=O)NCC(=O)NN=C/C(C)=C/c2ccccc2)cc1OC
75	0.63	COC(=O)C(NCc1cccc(CN(C(C(=O)OC)C(C)C)S(C)(=O)=O)c1)C(C)C (stereo unspecified)
76	0.69	CC(Cc1ccccc1)=NNC(=O)c1ccc(F)cc1
77	0.73	CCC(=NNc1nncc2ccccc12)c1ccc(F)cc1
78	0.75	O=[N+]([O-])c1cc(Cl)cc(C=NNc2ccccn2)c1O
79	0.72	NNC(=O)C(=NNc1ccccc1)S(=O)(=O)c1ccc(Cl)cc1
80	0.64	CCNC(=S)NN=C(C)c1cccc(C(F)(F)F)c1
81	0.68	Cc1ccc(-c2cc(C(=O)NN=Cc3cccnc3)n[nH]2)o1
82	0.69	COc1ccc(C(=O)C=CN2CCOCC2)cc1
83	0.67	C=C1CCN(C(CC(C)C)C(=O)NCc2ccco2)S(=O)(=O)c2ccccc21 (stereo unspecified)
84	0.7	CC(=NNC(=O)c1cccc(Br)c1)c1cccc(NC(=O)c2ccc(C)o2)c1
85	0.69	CC(CC(=O)Nc1ccc(Cl)cc1C(F)(F)F)=NNC(=O)c1cccs1
86	0.67	Cc1ccccc1OCC(=O)NN=Cc1sc(=O)n(Cc2cccc(C(=O)O)c2)c1Cl
87	0.7	CC1SC(=C(C#N)C(=O)NCc2ccco2)N(Cc2ccco2)C1=O (stereo unspecified)
88	0.69	CCOC(=O)c1c(NC(=O)C(=O)NN=Cc2ccccc2O)sc2c1CCCCC2
89	0.68	CN1CCC(=O)N(C(CSc2ccc(Br)cc2)c2ccccc2)CC1 (stereo unspecified)
90	0.71	C#CCOCCOCCOCCNc1nc(N2CCN(C(=O)Cn3cc(CCCCN)nn3)CC2)nc(N2CCN(C(=O)C(CCCCN)n3cc(CCC(=O)O)nn3)CC2)n1 (stereo unspecified)
91	0.7	Cc1ccc(SC(CCN2CCC(C)CCC2=O)c2ccccc2)cc1 (stereo unspecified)
92	0.72	CCCCNC(=S)NN=Cc1ccc(OCC(=O)Nc2c(C)cc(C)cc2C)c(OC)c1
93	0.69	O=C(NN=Cc1ccc(OC(=O)c2ccco2)cc1)c1ccccn1
94	0.65	CCC(C)C(=O)OC1CC(C)C=C2C=CC(C)C(CCC3CC(O)CC(=O)O3)C21 (stereo unspecified)
95	0.76	Cc1ccnc(N/C=C(/NC(=O)c2ccccc2)C(=O)NN=Cc2ccc(F)cc2)n1
96	0.69	CCc1n[nH]c(=S)n1N=Cc1cc(Br)c(OC)cc1OC
97	0.67	Cc1cccc(C=Nn2c(-c3cc(-c4ccccc4)n[nH]3)n[nH]c2=S)c1
98	0.71	CC(CC(=O)Nc1ccc(Cl)cc1)=NNC(=O)C(=O)N1CCCCC1
99	0.7	O=C(CN1CCCc2ccccc21)NN=Cc1ccccc1O
100	0.69	CC(O)C1NC(=O)C(CCCCN)NC(=O)c2cc([N+](=O)[O-])cc(I)c2OCCC(C(N)=O)NC1=O (stereo unspecified)
101	0.71	CN(C)C=NS(=O)(=O)c1ccc(Cl)cc1
102	0.65	CC(=NNC(=O)c1ccccc1F)c1ccc(C#N)cc1
103	0.69	O=C1NC(Cc2ccccc2)C(c2ccco2)O1 (stereo unspecified)
104	0.67	Cc1c(C=NNC(=O)c2csc3ccccc23)cnn1C
105	0.7	CCCc1c(C(=O)NN=Cc2ccccc2C(F)(F)F)nnn1-c1nonc1N
106	0.67	CC(=NNC(=O)C1CC1)c1ccccc1Br
107	0.68	O=C(CON=Cc1cccc([N+](=O)[O-])c1)NC1CCCCC1
108	0.71	C(=NNc1nc(N2CCCC2)nc(N2CCCC2)n1)c1ccncc1
109	0.68	CSCC[C@H](NC(=O)OC(C)(C)C)C(=O)NN=Cc1cc2ccc(C)cc2nc1Cl
110	0.65	O=C(Cc1n[nH]c(=O)[nH]c1=O)NN=CCCc1ccccc1
111	0.64	CC(C)(C)C(=O)ON=C(N)c1c(Cl)cccc1Cl
112	0.68	CCSC(C)CC1CC(=NO)c2c(CC)noc2C1 (stereo unspecified)
113	0.68	Cc1ccc(C(=O)NC(C)CN2C3=NCC(C(C)C)N3CC2Cc2ccc(O)cc2)cc1Br (stereo unspecified)
114	0.7&0.68	COc1ccc(CC2CN3C(=NCC3C)N2CCNC(=O)CCC2CCCCC2)cc1 (stereo unspecified)
115	0.7	CCNC(=S)NN=C(C)c1ccc2ccccc2c1OC(F)F
116	0.65	O=S(=O)(NN=Cc1ccc2c(c1)OCO2)c1ccc(Cl)cc1
117	0.7	O=C(NN=CC1CCCCC1)c1ccccn1
118	0.63	CC1CN=C(Nc2ccccc2)N1CCCC1CCCCC1 (stereo unspecified)
119	0.71	CCCCCCc1ccc(N2CC(CCCCC)C(CC(=O)NCc3ccc(OC)cc3)C2=O)cc1 (stereo unspecified)
120	0.68	O=C(CN1CCOCC1)NN=Cc1cc2ccccc2nc1Cl
121	0.71	CCCC1SC(=NN=Cc2ccc(OC)cc2)N(Cc2ccc(OC)cc2)C1=O (stereo unspecified)
122	0.66	CCOC(=O)NN=Cc1ccc(OC(=O)c2ccc3c(c2)OCO3)cc1
123	0.7	Clc1ccccc1CN1CCN(N=Cc2ccncc2)CC1

Bioassay records: PubChem, ICCB-Longwood Screening Facility, Harvard Medical School
